# Screens deposited in PubChem BioAssay by National Center for Advancing Translational Sciences (NCATS).
# BRCT PPI red: inhibitors of human BRCA1 BRCT-phosphoprotein interaction (red fluorophore) | AID 892 | BRCT-phosphopeptide binding, red fluorescence polarization | hit rate 0.03% among 75,000 | Potency, µM (doses to about 76.9 µM), for inactives: at the highest dose activity change, negative = inhibition, actives largely listed as inhibitors | P38398; also: % is scaled to controls: 0 for no effect and ±100 for the full control effect
#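 Fluorescence polarization: 100 nM His-tagged BRCA1 BRCT with 100 nM TAMRA-labelled phospho-BACH1 decapeptide, phosphate buffer pH 7.3 with 150 mM NaCl, DTT, 0.01% Tween 20; 12 min RT. Binding inhibition seen as FP decrease.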
# Epigenetic mod: epigenetic GFP locus derepression in mouse cells | mouse C127i GFP locus derepression, cytometry, 30 h | Potency, µM (highest dose often 46.1 µM), without a hit: at the highest dose GFP derepression (activation) | hit rate 0.09% among 68,000; also: % of control where 0% means no effect
#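 Read-out is the number of GFP-positive cells, scored as fluorescent objects 20 to 120 um wide, reflecting derepression of a silenced CMV-GFP reporter in murine C127i cells after 30 h compound exposure at 37 C.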
# CRE Fsk mod: modulators of forskolin-stimulated CRE signaling in CHO cells. CHO CRE-bla reporter (cAMP response element driving beta-lactamase), forskolin EC10, beta-lactamase ratio. Potency, µM (titrated, usually from 38.2 µM), inactives show at the highest dose activity change, negative = inhibition, hits mostly activators. hit rate 2.5% among 71,000. AID 662; active = well fitted activation curve with a large enough effect in the signal ratio, with a control signal flat, not every such curve was filed as active; inconclusive = small, poorly fitted or top-dose-only effect, or effect the other way, or a change in a side signal; the % refers to the signal ratio; also: potency is read from the fitted curve at half-maximal effect; % of control where 0% means no effect
#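 CRE-bla CHO reporter cells treated with compound titration plus EC10 NKH 477 (water-soluble forskolin), incubated 3 h at 37 °C; CCF4 loading 2 h at room temperature, 460/530 nm emission ratio read, AC50 values derived for positive or negative modulators.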
# 4MU fluor: 4-MU region autofluorescence | compound autofluorescence, 340/450 nm, 4-MU equivalents; hits give high values | hit rate 11% among 59,000 | max dye-equivalent concentration, M; in the data active = max dye-equivalent concentration above about 10 nM; inconclusive = mostly about 1.1 nM to 9.6 nM
#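 Intrinsic fluorescence at 340/450 nm (ex/em) was read after 15 min at room temperature in pH 8.0, 100 mM Tris. Each compound concentration expressed as 4-MU-equivalent concentration from a six-point 4-MU standard series on each plate.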
# Ub-GFP proteasome: inhibits proteasome, raising ubiquitin-GFP reporter fluorescence. AID 526. 67,000 tested, under 10 active. Ubiquitin-GFP reporter cells, proteasome inhibition, GFP fluorescence; response scale: untreated = 0%, 10 µM MG-132 = 100%. Potency, µM (series often up to 45.9 µM), for inactives: top-dose activation (GFP accumulation), usual class: activators; active = well fitted activation curve with a large enough effect, not every such curve was filed as active; inconclusive = small, poorly fitted or top-dose-only effect, or another doubt; inactive = no such curve, though single readings can be large or run the other way; also: potency is read from the fitted curve at half-maximal effect
#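 U2OS Ub(G76V)-GFP reporter; O/N plating, 0.5% FBS; cpd 46 uM–2.9 nM, 4 h, 37 °C; GFP+ cell count, 488/515 nm; norm. to basal vs 10 uM MG-132; CRC fit.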
# 15-hLO inh: blocks human 15-lipoxygenase activity; P16050; purified 15hLO-1, xylenol orange hydroperoxide absorbance; Potency, µM (titrated, usually from 57.1 µM), inactives show top-dose activity change, negative = inhibition, usual class: inhibitors; hit rate 1.4% among 74,000; AID 887; also: potency is read from the fitted curve at half-maximal effect; % is scaled to controls: 0 for no effect and ±100 for the full control effect; nearly all actives have a fitted effect of over 55% in size
# Target sequence (P16050 whole entry, looked up): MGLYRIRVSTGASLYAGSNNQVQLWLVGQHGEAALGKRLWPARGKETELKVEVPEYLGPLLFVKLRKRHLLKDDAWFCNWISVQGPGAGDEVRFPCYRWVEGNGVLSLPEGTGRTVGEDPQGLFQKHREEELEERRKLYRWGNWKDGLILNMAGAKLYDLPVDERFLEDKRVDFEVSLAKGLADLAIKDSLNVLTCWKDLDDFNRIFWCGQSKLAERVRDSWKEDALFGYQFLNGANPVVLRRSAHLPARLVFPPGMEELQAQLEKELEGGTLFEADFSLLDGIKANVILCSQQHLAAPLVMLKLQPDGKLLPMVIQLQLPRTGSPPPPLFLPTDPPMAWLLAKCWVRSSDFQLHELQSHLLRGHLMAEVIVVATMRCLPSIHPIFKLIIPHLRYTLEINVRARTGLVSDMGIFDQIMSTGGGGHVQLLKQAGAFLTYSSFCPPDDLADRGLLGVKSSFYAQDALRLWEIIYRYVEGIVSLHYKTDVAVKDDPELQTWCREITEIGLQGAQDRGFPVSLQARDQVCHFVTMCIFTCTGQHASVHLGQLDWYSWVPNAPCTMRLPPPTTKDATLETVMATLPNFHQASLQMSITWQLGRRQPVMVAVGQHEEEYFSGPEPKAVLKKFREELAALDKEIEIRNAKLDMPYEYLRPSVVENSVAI
#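 Readout: Fe(III)-xylenol orange absorbance, 573-to-405 nm ratio as reaction progress. Enzyme 40 nM purified human 15hLO-1, substrate 50 uM arachidonic acid, 6 min RT after 15 min compound preincubation; Hepes pH 7.5 buffer with Triton X-100.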
# DNA Pol III inh: blocks replication by bacterial DNA polymerase III holoenzyme | reconstituted DNA polymerase III holoenzyme replication, biochemical | Potency, µM (titrated, usually from 57.1 µM), for inactives: at the highest dose activity change, negative = inhibition | hit rate 0.25% among 71,000 | AID 603; also: potency is read from the fitted curve at half-maximal effect; % is scaled to controls: 0 for no effect and ±100 for the full control effect
#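 Reconstituted *E. coli* holoenzyme (0.35 nM Pol III, 1 nM beta, 154 nM SSB, 2 nM primase) was preincubated with compound for 15 min at RT. Synthesis on 1.4 nM ssM13Gori ran 35 min, then was stopped with PicoGreen/EDTA and read as dsDNA fluorescence.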
# BRCT inh green: blocks human BRCA1 BRCT binding to phosphopeptide, green readout | P38398 | BRCA1 BRCT-phosphopeptide binding, green fluorescence polarization | Potency, µM (doses to about 76.9 µM), inactives show at the top dose activity change, negative = inhibition, usual class: inhibitors | hit rate 0.05% among 75,000;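 also: potency is read from the fitted curve at half-maximal effect; plate controls were peptide without protein for full effect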
#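 Fluorescence polarization: His-tagged BRCT (~35 kDa BRCA1 C-terminus, 250 nM) bound to 100 nM fluorescein-labeled phosphorylated 10-aa BACH1 peptide, pH 7.3 phosphate buffer with DTT and Tween 20. Compounds incubated 12 min at room temperature; inhibition read as lowered polarization.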
# HBB splicing: modulators of hemoglobin beta chain splicing; hit rate 0.06% among 65,000; HBB splicing reporter cell assay, activation; EGFP reporter with mutant IVS2-654 intron; response scale: normalised to 500 nM splice-correcting PNA; AID 925; Potency, µM (highest dose often 46.1 µM), for the others: at the top dose activation, hits mostly activators; also: potency is read from the fitted curve at half-maximal effect; 0% is about no effect
#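 HeLa cells stably expressing EGFP interrupted by mutant beta-globin intron 2 (IVS2-654), 500/well in 2% FCS. Treated with compound for 2 days at 37C. Splicing correction scored as total well GFP intensity (488 nm excitation, 500-520 nm emission); 500 nM antisense PNA served as control.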
# A350 fluor: compounds fluorescent in Alexa 350 spectral region | Compound autofluorescence, 340/450 nm, Alexa 350 dye-equivalents; hits give high values | max dye-equivalent concentration, M | hit rate 11% among 59,000; in the data active = max dye-equivalent concentration above about 10 nM; inconclusive = mostly about 1.1 nM to 9.6 nM
# Starred values were filed as active, the others as inactive; i = inactive; u = inconclusive; x = not tested or not shown; [ ] = remark or other dose. Unless noted, calls follow the shape of the dose curve; as a rule, active = well fitted curve in the direction sought with a large enough effect; inconclusive = small, poorly fitted or top-dose-only effect, or another doubt; inactive = no such curve, though single readings can be large; an effect the other way counts as inactive or inconclusive. The list is partial; the hit share may differ from the screen's.
SMILES,BRCT PPI red,Epigenetic mod,CRE Fsk mod,4MU fluor,Ub-GFP proteasome,15-hLO inh,DNA Pol III inh,BRCT inh green,HBB splicing,A350 fluor
CC(NC(=O)Nc1ccccc1C(F)(F)F)C1CCCO1 (centres undefined),-1.3%,0%,1%,i,-3%,6%,-3%,-1.1%,0.6%,i
Cc1cc(S(=O)(=O)NC2CCCC2)ccc1F,0.2%,0%,30%,i,-2%,-14%,-1%,-1.9%,-1.2%,i
O=C(O)c1ccc(-n2nnnc2Oc2ccccc2C(=O)N2CCOCC2)cc1,1.9%,3%,-2%,i,6%,7%,-2%,-2.9%,0.2%,i
CCCc1cc(=O)oc2cc(OCC(=O)OC)cc(OCC(=O)OC)c12,0.1%,-2%,19%,x,-2%,u,-10%,-4.1%,0.2%,x
COc1ccc(C(c2nnnn2C2CCCC2)N2CCc3ccccc3C2)cc1OC (centres undefined),1.1%,-3%,-16%,i,1%,-5%,0%,-3.1%,x,i
COc1ccc(CSc2n[nH]c(C)n2)cc1Br,1.4%,-2%,6%,x,0%,-1%,-6%,-1.2%,-0.4%,x
O=C(O)c1ccc(NCc2nc3cc4ccccc4cc3[nH]2)cc1,-2.0%[15.4 µM],16%[9.22 µM],0%[7.6 µM],i,9%[9.17 µM],13%[11.4 µM],1%[11.4 µM],-0.5%[15.4 µM],0.4%[9.22 µM],i
COC(=O)c1cn(NC(=O)C2COc3ccccc3O2)c(=O)c2ccccc12 (centres undefined),-2.9%,-2%,-4%,i,6%,5%,-2%,-1.6%,-1.0%,i
COC(=O)c1cn(NC(=O)c2ccncc2)c(=O)c2ccccc12,-0.9%,4%,-2%,i,-7%,8%,-2%,-2.3%,0.5%,i
CN(C)c1nc(N)nc(Cn2ccnc2)n1,-0.5%,-3%,6.3µM*,i,6%,-3%,4%,-3.8%,0.4%,i
CC1(N2CCOCC2)CC2(O)C(=[N+]1[O-])CCc1nonc12 (centres undefined),1.8%,-2%,9%,i,0%,1%,-2%,-2.8%,2.7%[57.5 µM],i
CCN(CC)C(=O)CSc1ncnc2c(-c3cccs3)nsc12,-2.6%,2%,u,2.4e-08M*,0%,-11%,-1%,7.1%,x,2.2e-08M*
CCCCSc1nsc(NC(C)=O)n1,-1.2%,-1%,14%,i,7%,5%,-6%,-0.1%,x,i
c1cc(C(c2nnnn2C2CCCC2)N2CCOCC2)ccn1 (centres undefined),1.1%,-3%,2%,i,1%,1%,-3%,-1.9%,x,i
O=C(CSc1ccc2nnc(-c3ccccn3)n2n1)Nc1ccc2c(c1)OCCO2,-1.3%,x,15%,x,4%,11%,-11%,-2.3%,-0.3%,x
CSc1ccccc1C(=O)NCc1ccc2c(c1)OCO2,0.3%,-2%,-12%,i,5%,4%,-2%,0.9%,-1.0%,i
CCOc1cc([C@H]2[C@@H]3CCCC[C@]3(O)CCN2CC(=O)NCc2ccco2)ccc1O,-1.5%,0%,-5%,i,-3%,-4%,9%,1.0%,-2.8%[57.5 µM],i
CC1C(O)=C(c2nc3ccccc3[nH]2)C(=N)N1c1ccccc1 (centres undefined),2.0%,3%,23%,i,-7%,5%,-3%,-1.0%,4.7%,u
CCS(=O)(=O)c1nc2ccccc2n1Cc1ccccc1Cl,0.4%,-2%,3%,x,5%,-4%,4%,-2.4%,-0.3%,x
CCCN(CC1CC1)S(=O)(=O)c1ccc(S(N)(=O)=O)cc1,-1.4%,3%,2%,x,-6%,-8%,-4%,-1.1%,0.8%,x
COc1ccccc1N1CCN(Cc2nc(N)nc(Nc3ccccc3)n2)CC1,-0.7%,6%,-9%,4.4e-08M*,-5%,10%,0%,-0.9%,-1.0%[57.5 µM],4.3e-08M*
Cc1cc(NC(=O)CSc2ccc3nnc(-c4ccc(F)cc4)n3n2)no1,-2.1%,-2%,10%,1.8e-08M*,10%,-1%,-1%,0.6%,0.2%,2.2e-08M*
COc1ccccc1Nc1nc(N)nc(CN2CCc3ccccc3C2)n1,-1.6%,-2%,5%,i,-4%,u,-2%,0.2%,-1.6%,i
CCc1ccccc1-n1cnc2cc(C(=O)O)ccc21,-0.1%,-1%,-11%,i,-3%,1%,-1%,-3.2%,-4.2%,i
CC(C)c1cc(C(=O)N2CCN(C(c3ccccc3)c3ccccc3)CC2)no1,-0.8%,0%,-5%,i,-5%,-1%,0%,-0.5%,-2.7%,i
Cc1cc(-c2ccccc2)c2c3c(cn2n1)c(=O)n(C)c(=O)n3C,-2.4%,-6%,u,i,3%,-1%,1%,0.2%,4.0%,i
CCCc1nc2sc3c(SCC(=O)NCc4ccco4)ncnc3c2c2c1CCC2,-0.3%,3%,8%,i,-3%,-13%,-6%,-0.5%,-2.1%,i
O=C1C2ON(c3ccccc3)C(c3ccccn3)C2C(=O)N1c1ccc(Br)cc1 (centres undefined),-1.0%,-2%,-17%,x,0%,-13%,4%,-2.9%,-4.2%,x
Nc1nnc(SCC(=O)c2ccccc2)s1,-0.3%,-4%,-3%,x,0%,3%,5%,-2.3%,-0.5%[9.22 µM],x
CC(=O)C1=C(C)Nc2ncnn2C1c1cccc(OCc2ccccc2)c1 (centres undefined),-2.1%,x,14%,x,2%,-8%,6%,-1.0%,-0.8%,x
O=C(CN1CCC(n2nnc3cc(F)ccc32)CC1)Nc1ccc2c(c1)CCC2,-0.1%,4%,14%,i,2%,-17%,-4%,0.2%,x,i
COc1cccc(NC(=O)CSc2ccc3nnc(-c4ccncc4)n3n2)c1,-1.1%,x,u,x,-1%,6%,-13%,2.1%,0.3%,x
O=C(c1ccc(Cn2c(=O)[nH]c3ccccc3c2=O)cc1)N1CCN(c2ccc(F)cc2)CC1,0.4%,-2%,2%,i,3%,-19%,0%,0.6%,-1.7%,i
CCOC(=O)C1(C(F)(F)F)N=C(N(C)C)OC(N(C)C)=N1,2.4%,0%,-9%,i,12%,13%,-4%,-3.5%,-1.6%,i
CC1(C)CC(=O)C2(CC3=C(CC(C)(C)CC3=O)O2)C(=O)C1,-0.8%,-3%,4%,x,-3%,-3%,0%,-2.9%,1.0%,x
O=C(c1ccc2c(c1)OCO2)N1CCN=C1SCc1cccnc1,0.9%,-3%,1%,x,8%,4%,9%,-1.3%,-0.1%,x
CC(=O)Nc1ccc(C(=O)CSc2ncn(-c3ccccc3)n2)cc1,-0.4%,-6%,13%,x,-4%,u,-8%,5.0%,0.9%[9.22 µM],x
CCOC(=O)c1sc(NC(=O)CSc2ncccn2)c(C#N)c1C,1.8%,2%,7%,i,-1%,-5%,12%,3.3%,0.8%,i
COc1cc(/C=C\c2ccc(OC)cc2OC)cc(OC)c1,-0.8%,0%,2µM*,x,1%,-29%[25.6 µM],1%,0.4%,x,x
CC1CCN(c2nc3ccccc3nc2C(C#N)C(=O)OC2CCCCC2)CC1 (centres undefined),-0.5%,8%,u,i,3%,-5%,1%,1.3%,-1.6%[57.5 µM],i
CCOc1ccccc1-n1c(SCC(=O)NC2CCCC2)nnc1-c1ccoc1C,-2.2%,1%,u,i,7%,-4%,-2%,1.1%,-4.8%,u
CCOC(=O)CSc1nc2nc(C)cc(C)n2n1,-1.0%,x,17%,x,15%,u,-8%,-2.0%,-0.1%,x
O=C(OCc1cc2ccccc2[nH]c1=O)C1CCCO1 (centres undefined),-0.3%,0%,-1%,u,-8%,7%,-6%,-3.9%,4.0%[0.369 µM],u
O=C(O)CCCCCNC(=O)CCn1nnc2ccccc2c1=O,1.1%,-3%,-10%,i,5%,0%,-7%,-2.6%,0.6%,u
CCOC(=O)c1c(NC(=O)c2cccs2)sc(C)c1CC,0.7%,-2%,13µM*,x,-12%,-7%,-7%,2.5%,0.6%,x
c1cncc(C(c2nnnn2C2CCCC2)N2CCCC2)c1 (centres undefined),-3.0%,-1%,-4%,i,5%,4%,-9%,-1.0%,-1.8%,i
CCN(CC)c1nc2n(c(=O)n1)CCO2,0.1%,3%,-2%,i,1%,6%,-3%,-0.1%,0.6%,i
CC1(C)Cc2nc3sc4c(=O)[nH]cnc4c3cc2CS1,-3.0%,0%,29%,u,-2%,-3%,-6%,2.6%,-0.5%,u
Cc1cc(C)c2c(c1)cc(C)c1nnc(SCC(=O)Nc3cc(C)on3)n12,0.4%,2%,u,i,2%,4%,0%,2.6%,x,i
